TRPML1 ag = qHTS for Agonists of the Human Mucolipin Transient Receptor Potential 1 (TRPML1); Mucolipin-1 (Homo sapiens), Q9GZU1; activation, % (no concentration beside the values); hit rate 0.12% among 410,000; TRPML1-expressing cells, Ca2+ dye fluorescence, FDSS; host cell line not named in the record; reference of the full effect not given here; in the data active = activation above about 50%; inconclusive = about 30% to 50%; inactive = below about 30%; further: 0% is about no effect; the text of the record puts the active cut at 80%
Target sequence (Q9GZU1 whole entry, looked up): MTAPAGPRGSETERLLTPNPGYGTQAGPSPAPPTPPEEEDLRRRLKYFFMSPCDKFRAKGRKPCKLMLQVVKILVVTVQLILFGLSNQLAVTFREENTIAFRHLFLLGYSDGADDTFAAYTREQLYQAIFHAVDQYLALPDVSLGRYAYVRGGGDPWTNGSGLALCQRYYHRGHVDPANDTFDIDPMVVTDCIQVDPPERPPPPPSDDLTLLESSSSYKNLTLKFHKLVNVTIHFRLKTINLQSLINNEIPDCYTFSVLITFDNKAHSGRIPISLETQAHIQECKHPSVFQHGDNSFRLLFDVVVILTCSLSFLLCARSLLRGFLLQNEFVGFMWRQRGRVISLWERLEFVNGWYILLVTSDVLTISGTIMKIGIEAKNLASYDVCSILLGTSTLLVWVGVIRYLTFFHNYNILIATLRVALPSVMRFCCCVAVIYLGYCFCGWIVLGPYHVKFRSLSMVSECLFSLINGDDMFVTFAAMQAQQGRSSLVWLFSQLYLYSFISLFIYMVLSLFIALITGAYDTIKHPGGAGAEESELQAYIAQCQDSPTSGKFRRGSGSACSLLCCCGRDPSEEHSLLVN
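Cells: TRPML1-DL, 1X Tet inducer, ~16 h at 37 degrees C/5% CO2. Dye: ABD Ca8 no-wash + quencher, 45-90 min RT. Read: 10 s baseline, compound add, 110 s agonist phase; 54-4 EC80 (4uM final), 110 s antagonist phase.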
gsp ag = qHTS for Agonist of gsp, the Etiologic Mutation Responsible for Fibrous Dysplasia/McCune-Albright Syndrome: qHTS; gsp mutant cells, cAMP HTRF, 30 min; control for the full effect not named in the record; Potency, µM (doses to about 76.9 µM), without a hit: at the top dose activation (cAMP increase), most hits filed as activators; hit rate 0.13% among 340,000; AID 624287, 2012; active = well fitted activation curve with a large enough effect; inconclusive = small, poorly fitted or top-dose-only effect, or another doubt; inactive = no such curve, though single readings can be large or run the other way; cell line not stated here;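 further: phosphodiesterase inhibitor Ro 20-1724 added with compounds to block cAMP breakdown; potency means the concentration at half of the fitted maximal effect; nearly all actives have a fitted effect of over 60% in size; about a fifth of the inactives were tested at one dose only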
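Cells in DMEM/10% FBS with G418 were pretreated with compounds in DMSO plus […] (300 uM stock) for 30 min at 37C. cAMP was measured by HTRF (cAMP-d2 plus anti-cAMP antibody-K) after 30 min at room temperature.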
ClpP mod = qHTS Assay for Activators of ClpP; purified B. subtilis ClpP, FRET peptide cleavage, 20 min; Potency, µM (series often up to 57.5 µM), inactives show at the top dose activity change, negative = active; ATP-dependent Clp protease proteolytic subunit (Bacillus subtilis (strain 168)), P80244; hit rate 1.9% among 340,000; AID 651965, 2013; active = well fitted falling curve with a large enough effect; inconclusive = small, poorly fitted or top-dose-only effect; inactive = no such curve, though single readings can be large or run the other way; further: potency means the concentration at half of the fitted maximal effect; the source files actives as falling curves though it sought activators and does not explain the sign; nearly all actives have a fitted effect of over 65% in size; many hits overshoot -100%
Target sequence (P80244 whole entry, looked up): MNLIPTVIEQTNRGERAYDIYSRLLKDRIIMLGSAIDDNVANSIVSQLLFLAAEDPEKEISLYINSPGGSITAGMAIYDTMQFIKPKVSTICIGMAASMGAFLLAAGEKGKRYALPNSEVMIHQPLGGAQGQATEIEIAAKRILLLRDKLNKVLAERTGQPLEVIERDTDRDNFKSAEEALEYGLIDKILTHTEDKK
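ClpP 10 microg/mL final, pH 8 Tris/KCl buffer with BSA, glycerol, Tween-20; compound pinned in; FRET-FV substrate; RT 20 min; Ex320/Em430; ΔFRET vs ADEP 5.8 microM, DMSO, no enzyme.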
TRPML1 blocker = qHTS for Inhibitors of the Human Mucolipin Transient Receptor Potential 1 (TRPML1); TRPML1-inducible cells, Ca2+ dye fluorescence, FDSS; stronger effect = lower value; inhibition of EC80 agonist-evoked calcium signal; Mucolipin-1 (Homo sapiens), Q9GZU1; activity change, negative = inhibition, % (concentration not given with the values); AID 624415, 2012; hit rate 0.02% among 390,000; in the data active means activity change below about -50%; inconclusive means about -30% to -50%; inactive means above about -30%;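 further: stimulus is agonist 54-4 at its EC80 concentration; on the % scale 0 is the no-effect control and ±100 the full control effect; compound concentration not given in the record; the text of the record puts the active cut at -80%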
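TRPML1-DL cells, Tet-induced overnight (~16 h, 37 °C) at 1,500 cells/well, were loaded with Ca8 no-wash dye plus quencher for 45-90 min at room temperature. Compounds were pinned during FDSS kinetic reading; agonist 54-4 at EC80 (4 uM final) then added.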
Menin-MLL FL inh = qHTS Assay for Inhibitors Targeting the Menin-MLL Interaction in MLL Related Leukemias: Competition With Fluorescein Labeled MLL-derived Peptide; Fluorescence polarization, fluorescein-MLL peptide displacement from menin; FP activity change, % at 61.4 µM; 290,000 tested, under 10 active; AID 1766, 2009; inconclusive = falling polarisation curve, or a change in total fluorescence; inactive = total fluorescence flat and polarisation flat or rising; no compound was filed as active; the % refers to the polarisation; negative = inhibition;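 further: % of control where 0% means no effect; inhibitors lower the polarisation; unlabelled MLL peptide was the positive control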
gsp antagonist = qHTS for Antagonists of gsp, the Etiologic Mutation Responsible for Fibrous Dysplasia/McCune-Albright Syndrome: qHTS | gsp-mutant cells, cAMP HTRF, 30 min; control for the full effect not named in the record | hit rate 0.4% among 340,000 | AID 624288, 2012 | Potency, µM (doses to about 76.9 µM), for inactives: at the top dose activity change, negative = inhibition, usual class: inhibitors; active = falling curve of any shape with a large fitted effect; inconclusive = falling curve, mostly with a smaller effect; inactive = flat or rising curve; cell line not stated here;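 further: intracellular cAMP measured with PDE inhibitor Ro 20-1724 present during compound exposure; potency means the concentration at half of the fitted maximal effect; on the % scale 0 is the no-effect control and ±100 the full control effect; nearly all actives have a fitted effect of over 65% in size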
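HTRF cAMP measurement after 30 min RT detection following 30 min, 37C compound treatment alongside […] (added as 300 uM solution) in G418-selected cells seeded at 2000/well and grown 16–24 h.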
Starred values were filed as active, the others as inactive; ? = inconclusive; / = no result given; & = joins results of further samples; [ ] = another dose, or the depositor's remark.

SMILES	TRPML1 ag	gsp ag	ClpP mod	TRPML1 blocker	Menin-MLL FL inh	gsp antagonist
Cc1ccc(S(=O)(=O)N2CCC(C(=O)N/N=C/c3cccn3C)CC2)cc1	0.9	-1%[15.4 µM]	-0.5%	19	/	-7%
O=C(NCc1nnc(SCC(=O)N2CCCC2)o1)c1ccco1	2.2	-6%	-0.2%	7	-3.8	3%
Cc1ccccc1OCC(=O)Nc1ccc2c(c1)Cc1ccccc1-2	1.9	?	-5.8%	34	1.3	10%
CCO[C@H]1OC(C(=O)NC2CC2)=C[C@@H](c2ccc(C(F)(F)F)cc2)[C@@H]1CCCO	-0.6	/	0.3%	42	-6.0	-12%
O=C(CCC(=O)Nc1ccc(F)cc1)N/N=C/c1cc([N+](=O)[O-])ccc1O	-0.7	-16%	/	-1	4.0	-16%
O=C(NCCC1=CCCCC1)c1ccc2c(c1)sc1nc(-c3ccc(F)cc3)cn12	0.0	/	-20%	8	/	/
CN(Cc1nc2ccc(Cl)cc2[nH]1)Cc1nc(-c2cnccn2)no1	1.6	-43%[inhibitor]	-1.9%	6	5.2	4%
COCCNC(=O)C1CCN(Cc2cc3ccccc3n2Cc2ccc(C)cc2)CC1	3.4	/	-0.5%	3	/	/
Cc1cccc(NC(=O)CSc2nc3ccccc3c3nc(CCn4cncc4C)nn23)c1	1.1	/	0.1%	-5	/	/
COc1ccc(CCNC(=O)COc2ncnc3ccccc23)cc1	0.1	-6%[15.4 µM]	/	-22	-0.5	9%
O=C(O)CCCCCN1C(=O)CSC1=S	0.8	10%	-1.2%	11	?	-6%
CCOc1ccc(S(=O)(=O)N2CCCCC2)cc1NC(=O)CCNC(=O)c1ccco1	-0.6	-3%	1.0%	11	/	-6%
COc1ccc(C)cc1NC(=O)CN(C)S(=O)(=O)c1ccc2c(c1)CCCN2C(C)=O	-0.9&-1.2	1%	-1.5%&0.9%	-4&2	0.9	-7%
Cc1noc(C)c1CSc1ccccc1C(=O)Nc1nccs1	0.5	38%	1.4%	-1	3.3	7%
CN(C)CC(C)(C)CNS(=O)(=O)c1ccc(Cl)s1	-0.5	-47%[inhibitor]	/	-1	-0.2	16%
O=C(CSc1ccccc1F)OCC(=O)N1CCN(C(=O)c2ccco2)CC1	0.5	-21%[15.4 µM]	/	1	/	1%
Cc1cc(NS(=O)(=O)c2ccc(NC(=O)CSc3nc4ncc(Cl)cc4[nH]3)cc2)nc(C)n1	-0.5	0%	0.6%	-9	1.0	6%
COc1ccc(Cl)cc1C(=O)Nc1ccc(NC(=O)c2ccco2)cc1	1.8	-28%	?	7	2.8	-3%
O=C(C[C@@H]1C/C=C/CC[C@@H](Cc2ccc(F)cc2)C(=O)OCCNC1=O)N[C@H](CO)Cc1ccccc1	-0.6	/	-15%	16	/	6%
CCn1c(C)nc2cc(C(=O)N3N=C(CCOC)CC3(O)C(F)(F)F)ccc21 (configuration not stated)	0.8	-14%	1.0%	1	-0.3	1%
Cc1cccc(NC(=O)c2ccc(-n3cncn3)c([N+](=O)[O-])c2)c1	-0.3	-12%[15.4 µM]	-0.5%	29	/	-10%
CC(C)(C)c1ccc(NC(=S)NCCc2ccccn2)cc1	1.0	-5%[15.4 µM]	-0.1%	-4	5.9	-9%
Cc1ccc(C(c2sc3nc(C)nn3c2O)N2CCN(c3ccccc3)CC2)cc1 (configuration not stated)	0.8	0%	-1.6%	-11	-2.7	-4%
N=C(N)c1ccccc1	0.9&-0.1	/	-3.8%&-0.7%	-10&13	-1.2&4.4	-11%&-4%
COc1cccc(C(Nc2ccccn2)c2c(NC(=O)c3ccco3)sc(C)c2C)c1 (configuration not stated)	2.3	27%	-32%	-12	-1.6	-1%

More compounds follow.
SMILES	TRPML1 ag	gsp ag	ClpP mod	TRPML1 blocker	Menin-MLL FL inh	gsp antagonist
Cc1cccc(NC(=S)Nc2ccc3cn[nH]c3c2)c1	-0.3	14%	22µM*	-7	7.1	7%
Cc1ccc2c3c1C1(C(=O)N3C(C)(C)CC2C)C(C#N)=C(N)Oc2cc(O)ccc21 (configuration not stated)	1.8	-47%[inhibitor]	-0.5%	18	1.3	-15%
Cc1c(NC(=O)CSc2ncccn2)c(=O)n(-c2ccccc2)n1C	1.9	1%[15.4 µM]	/	17	0.2	-8%
CCN(CC)C(=O)COc1ccc2c3c(c(=O)oc2c1C)CCCC3	-1.1	-2%[15.4 µM]	0.6%	-28	1.4	?
O=C(COC(=O)Cc1ccccc1F)Nc1cccc(F)c1	0.9	-7%[15.4 µM]	/	-3	0.9	-1%
COc1ccc(C)cc1NC(=O)c1nnn(-c2c(C)cccc2C)c1C	2.5	/	?	38	/	/
COc1ccc([N+](=O)[O-])cc1NC(=O)CSc1ncccn1	-0.6	9%[15.4 µM]	/	2	-1.5	-11%
COCCCNC(=O)C[C@H]1C[C@H](C(=O)N(C(C)C)C(C)C)[C@@]2(C)c3[nH]c4cc(CCC(=O)N(C)C)ccc4c3CCN2C1=O	1.0	/	-3.0%	3	/	-6%
COc1ccc(C(=O)N2CCc3cc(OC)c(OC)cc3C2c2ccc(OC)c(OC)c2)cc1 (configuration not stated)	1.8	?	/	6	-5.9	5%
Cc1ccc(OCCn2c(CCNC(=O)C(C)C)nc3ccccc32)cc1	-1.1	-62%[inhibitor]	1.0%	3	4.1	2%
O=C(NCCc1nc2ccccc2[nH]1)/C(=C/c1ccco1)NC(=O)c1ccccc1Br	1.5	-32%[inhibitor]	0.3%	3	7.4	1%
C/C(=N\NC(=O)CSc1nc2nc(C)cc(C)n2n1)c1ccccc1	-0.7	12%	0.0%	8	5.6	3%
COc1cc(C)c(CNc2cccc(C)c2)cc1C	2.1	12%	-2.6%	-9	4.7	-7%
COc1ccc(-c2sc3ccc(N4CCOCC4)cc3c2C#CCCO)cc1	0.4	-6%	-25%	-21	/	?
Cc1c(Cl)cccc1NC(CC(=O)c1ccccc1)C(=O)O (configuration not stated)	-0.1	-1%	25µM*	-18	12	-38%
Cc1ccccc1OCC(=O)Nc1cccc(Cl)c1C	-0.4	11%[15.4 µM]	?	4	-1.9	0%
Cn1c(=O)n(C)c2cc(NS(=O)(=O)c3ccc(F)cc3)c(NCc3ccccc3)cc21	-1.1	/	4.7%	-5	/	/
O=C(CSC1=NC2(CCCCCC2)N=C1c1ccccc1)Nc1ccc2c(c1)OCCO2	1.8	-47%[inhibitor]	-3.1%	-5	3.4	?
Cc1ccccc1C(=O)OCc1cc(=O)n2nc(C(C)C)sc2n1	-0.6	/	0.7%	-3	/	/
COc1ccc(-c2csc(Nc3ccccc3)[n+]2Cc2ccccc2)cc1	-0.6	-3%	-0.7%	14	2.1	-20%
CCOc1cc(C)c(Cl)cc1S(=O)(=O)NC1CC(C)(C)NC(C)(C)C1	0.1	-28%	0.6%	-14	2.0	0%
CCOC(=O)N1C/C(=C\c2ccccc2)C(=O)/C(=C/c2ccccc2)C1	-0.2	13%	0.3%	70	-22	-3%
COC(=O)c1cc2nc(-c3ccc(C)cc3)cc(C(F)(F)F)n2n1	2.2	7%[15.4 µM]	/	-3	3.1	13%
CC1(OC(=O)C2CCCC2)C(=O)C=C2C=C(c3ccsc3)N(CCc3c[nH]c4ccccc34)C=C2C1=O (configuration not stated)	0.5	/	-1.2%	0	3.4[11.7 µM]	-2%
COc1ccccc1CNC(=O)Cn1c(=O)nc(-c2ccccc2)c2ccccc21	1.5	/	0.4%	-5	/	/

Later entries
SMILES	TRPML1 ag	gsp ag	ClpP mod	TRPML1 blocker	Menin-MLL FL inh	gsp antagonist
c1ccc2c(N3CCCCC3)ncnc2c1	-0.3	24%	1.7%	8	-2.1	-10%
COCCNc1nc2c(c(=O)n(C)c(=O)n2C)n1CCCc1ccccc1	-0.7	30%	0.0%	9	/	/
CCOc1ccccc1NC(=O)C(NS(=O)(=O)c1ccc2c(c1)CCC(=O)N2)c1ccccc1 (configuration not stated)	-0.1	/	0.4%	17	/	/
O=C(COC(=O)c1cn(-c2ccccc2)nc1-c1ccc(F)cc1)Nc1ncc(Cl)cc1Cl	1.8	-39%[15.4 µM]	/	-8	?	-5%
Cc1ccccc1CC1CCN(CCCNC(=O)Nc2ccccc2)CC1	-0.7	-9%	1.1%	2	-1.7	2%
O=c1ccc2ccccc2o1	-1.0	/	-2.3%	22	4.9&3.1&1.2	-3%
CCc1cccc(C)c1NS(=O)(=O)c1c(C(=O)N2CCCCCC2)c(C)n(C)c1C	0.4	/	-0.2%	-12	/	/
CCOC(=O)CN(C(=O)CSc1nnc(COc2ccc(OC)cc2)n1C)c1ccccc1	0.7	23%	1.6%	5	2.6	5%
O=C1c2ccccc2C(=O)N1CCCn1c(=O)oc2ccccc21	0.0	-41%[inhibitor]	0.3%	-10	-1.2	0%
CCOc1ccc(NC(=O)CN2CCc3ccccc3C2)cc1	0.3	7%[15.4 µM]	-0.5%	-12	0.5	-13%
CCOc1ccccc1C(=O)Nc1cccc(-c2ccc3nncn3n2)c1	2.4	14%[15.4 µM]	/	5	3.9	-21%
CC1CCN(S(=O)(=O)c2ccc3c(c2)N(CC(=O)NCc2ccccc2)C(=O)CO3)CC1	1.6	/	-1.5%	18	/	/
COc1ccc(NC(=O)c2ccccc2OCc2c(C)noc2C)cc1OC	0.2	-94%[inhibitor]	2.5%	5	/	-16%
O=C(OCc1cn([C@H]2CN(C(=O)c3cccs3)[C@@H](c3ccc(Cl)cc3)C[C@@H]2O)nn1)c1ccccc1	0.2	2%	0.4%	9	/	/
CCCS(=O)(=O)N1CCC(C(=O)NC2CCCCC2C)CC1 (configuration not stated)	-0.5	-4%	?	32	7.2	-1%
CCCOc1ccccc1/C=C1/C(=O)ON=C1C	/	-35%[inhibitor]	0.2%	/	-3.4	14%
Cc1ccc(C)c(N2CCN(C(=O)c3cc4ccccc4oc3=O)CC2)c1	-0.9	11%	0.6%	-9	3.1	-6%
O=C(CSc1nnc(-c2cccs2)o1)N1CCc2ccccc21	0.2	5%	1.8%	6	-0.8	-11%
Cc1cs/c(=N\N=C2CCCCC2)n1Cc1ccco1	-0.2	-10%	/	-5	4.4	-6%
Cc1ccc(NC(=O)c2ccccc2[N+](=O)[O-])nc1	-0.3	5%	-3.1%	8	2.4	8%

Screening data: PubChem BioAssay, National Center for Advancing Translational Sciences (NCATS)
